DUX4 txn inh: blocks DUX4-driven transcriptional activation | 293T-iDUX4 ZSCAN4-Gaussia luciferase reporter, 24 h; hits give low values | activity change, negative = inhibition, % (test concentration not listed) | 0.8% of 37,000 active;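 active = -10% or lower and over 25 points stronger than a control reporter; inconclusive = -10% or lower with a smaller gap; inactive = above -10%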;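 note: 0% = median of neutral control wells and -100% = median of positive control wells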
DUX4 txn inh difference: recorded beside DUX4 txn inh, whose call it bears; Gaussia minus Italica difference, %; measured here: selective DUX4 reporter inhibition;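 worked out from the two reporters; negative = selective loss of the DUX4 reporter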
DUX4 txn inh control: also measured in DUX4 txn inh; calls as there; activity change, negative = inhibition, %; measured here: Italica tet-on control reporter;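 0 = neutral control and -100 = positive control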
Starred values were filed as active, the others as inactive; ? = inconclusive; / = not tested or not shown. These rows are one share of the data (hit frequency here may not be typical).

Values in the order – DUX4 txn inh	DUX4 txn inh difference	DUX4 txn inh control
> C[C@H](CO)N1C[C@H](C)[C@@H](CN(C)Cc2cccc(C(=O)O)c2)OCc2cnnn2CCCC1=O
    5	4	0.9
> CC(=O)N1CC2(C1)[C@H](c1ccccc1)[C@H](CO)N2C(=O)Cc1ccccc1
    12	11	0.7
> CN1C(=O)c2cc(NC(=O)C3CCOCC3)ccc2OC[C@H]2O[C@H](CC(=O)NC3CCCC3)CC[C@@H]21
    2	0	2.3
> C[C@H]1CN([C@@H](C)CO)C(=O)c2cc(N(C)C)ccc2O[C@H]1CN(C)CC1CCCCC1
    0	1	-0.8
> O=C(Cc1ccccc1)N1CC(=O)N2[C@@H](CO)[C@@H](c3ccc(C#CCc4ccccc4)cc3)[C@@H]2C1
    1	0	0.1
> CO[C@H]1CC[C@H]2CCOc3c(C#N)cccc3C(=O)N(C)CC3(CCCCC3)CC(=O)N(C)C[C@H]1O2
    -2	-3	1.2
> CCC(=O)N1CC2(C1)[C@@H](c1ccc(-c3cccc(OC)c3)cc1)[C@@H](CO)N2C(C)=O
    13	12	0.6
> COCCNC(=O)C[C@H]1CC[C@H]2[C@H](COc3ccc(NC(=O)C4CCOCC4)cc3C(=O)N2C)O1
    3	4	-1.2
> COC(=O)C[C@@H]1C[C@H]2c3cc(NS(C)(=O)=O)ccc3O[C@H]2[C@@H](CO)O1
    -2	-5	3.3
> O=C1NCCOCn2nncc2CC[C@H]1Cc1ccc(Cl)cc1
    0	-4	3.6
> COc1cccc(NC(=O)N2[C@@H](CO)[C@@H](c3ccccc3)[C@@H]2CNCC(C)C)c1
    -2	0	-2.1
> O=C(Nc1ccccc1F)N1CC2(C1)[C@H](c1ccccc1)[C@H](CO)N2C(=O)CC1CC1
    -6	-9	2.6
> CN(C)C(=O)[C@H]1[C@H](CO)[C@H]2Cn3c(ccc(C4=CCCCC4)c3=O)[C@@H]1N2Cc1ccncc1
    3	-4	7.5
> O=C(NC1CCCC1)N[C@@H]1C=C[C@@H](CC(=O)N2CCOCC2)O[C@@H]1CO
    -9	-7	-2.1
> O=C(NCc1ccccc1)[C@H]1[C@H](CO)[C@H]2Cn3c(cccc3=O)[C@@H]1N2C(=O)c1cnccn1
    -6	-4	-1.9
> Cc1ccc(-c2ccc([C@H]3[C@@H](CO)N4C(=O)CN(C(=O)c5cccnc5)C[C@H]34)cc2)cc1
    -3	-2	-0.7
> CN(C)CC(=O)N1CCCCN2[C@@H](CO)[C@@H](c3ccc(-c4cncnc4)cc3)[C@@H]2C1
    13	7	6.3
> CO[C@H]1CN(C)C(=O)c2cc(NS(=O)(=O)c3ccccc3F)ccc2OC[C@H](C)NC[C@@H]1C
    2	-3	5.1
> COc1ccc2c3c([nH]c2c1)[C@@H](CO)N(Cc1cccc(F)c1)CC31CN(CC2CC2)C1
    ?	/	/
> O=C(NC1Cc2ccccc2C1)[C@@H]1[C@@H](CO)[C@@H]2Cn3c(cccc3=O)[C@@H]2N1C(=O)C1CC1
    4	3	0.8
> COc1ccc(CN2C[C@@H](C)[C@@H](OC)CN(C)C(=O)c3cc(NC(=O)C4CC4)ccc3OC[C@H]2C)cc1
    1	-2	2.9
> CCCNC(=O)Nc1ccc2c(c1)C(=O)N(C)C[C@@H](OC)[C@@H](C)CN(Cc1ccccn1)[C@@H](C)CO2
    5	3	2.3
> O=C(C[C@@H]1CC[C@H](NC(=O)NC2CCCCC2)[C@@H](CO)O1)NCc1ccccc1
    -1	-2	0.5
> CN(C)CC(=O)N1[C@H](CO)[C@H](c2ccc(/C=C/c3ccccc3)cc2)[C@@H]1C#N
    5	1	3.4
> C[C@H](CO)N1C[C@H](C)[C@H](CN(C)Cc2ccccc2C(=O)O)OCc2cnnn2CCCC1=O
    8	10	-2.4
> CCCNC(=O)N1C[C@H](O)COC[C@H]2O[C@H](CC(=O)NCc3ccc(Cl)c(Cl)c3)CC[C@@H]21
    10	15	-4.7
> C[C@@H]1CN([C@@H](C)CO)C(=O)CCCn2cc(nn2)CO[C@@H]1CN(C)S(=O)(=O)c1ccc(-n2cccn2)cc1
    7	8	-1.5
> C[C@H]1CN([C@@H](C)CO)C(=O)Cc2cc(NC(=O)Nc3ccc(F)cc3)ccc2O[C@@H]1CN(C)S(C)(=O)=O
    -2	-1	-1.4
> CCC(=O)N1CC2(C1)CN(Cc1cccc(Cl)c1)[C@H](CO)c1[nH]c3cc(OC)ccc3c12
    ?	/	/
> O=C(NCC[C@@H]1CC[C@H](NS(=O)(=O)c2cccc(Cl)c2)[C@H](CO)O1)c1cnccn1
    3	4	-1.4
> C[C@H](CO)N1C[C@H](C)[C@H](CN(C)Cc2cccc(C(F)(F)F)c2)OCc2cnnn2CCCC1=O
    ?	/	/
> Cc1noc(C)c1NC(=O)N(C)C[C@@H]1OCCCC[C@@H](C)Oc2ccc(N(C)C)cc2C(=O)N([C@H](C)CO)C[C@@H]1C
    2	6	-3.9
> Cc1ccccc1S(=O)(=O)NCC[C@@H]1CC[C@@H](NC(=O)Nc2cccc(F)c2)[C@@H](CO)O1
    1	-2	3.0
> CN1C(=O)c2cc(NC(=O)Cc3cccs3)ccc2OC[C@@H]2O[C@H](CC(=O)NCCCN3CCOCC3)CC[C@@H]21
    0	0	0.0
> CO[C@@H]1CN(C)C(=O)c2cc(NC(=O)C3CC3)ccc2OC[C@@H](C)N(C(=O)CN2CCOCC2)C[C@@H]1C
    3	-2	5.8
> O=C(CC1CC1)N1CC2(C1)[C@@H](c1ccccc1)[C@@H](CO)N2C(=O)c1cnccn1
    1	2	-1.3
> N#C[C@H]1[C@H](c2ccc(C#Cc3ccccc3F)cc2)[C@@H](CO)N1C(=O)C1CCOCC1
    1	-1	2.4
> Cc1ccc(S(=O)(=O)N[C@H]2CC[C@@H](CC(=O)N3CCc4ccccc4C3)O[C@H]2CO)cc1
    -4	-1	-2.7
> COCC(=O)N1CC2(C1)CN(Cc1nccs1)[C@H](CO)c1c2c2ccc(OC)cc2n1C
    10	-2	12
> CC=Cc1ccc2n(c1=O)C[C@H]1[C@H](CO)[C@@H](C(=O)NCCc3cn(C)cn3)[C@@H]2N1C(=O)C1CCC1 (mixture of isomers)
    4	4	0.3
> CO[C@@H]1CN(C)C(=O)c2ccc(NS(=O)(=O)CC(F)(F)F)cc2OC[C@H](C)N(C(=O)c2ccc3c(c2)OCO3)C[C@H]1C
    2	4	-2.3
> COCC#Cc1ccc([C@H]2[C@@H](CO)N3CCCCN(Cc4cccnc4)C[C@H]23)cc1
    24	-8	32
> CCCNC(=O)[C@@H]1[C@@H](CO)[C@@H]2Cn3c(cccc3=O)[C@@H]2N1CCC(F)(F)F
    -2	-1	-0.7
> CN1[C@@H]2c3ccc(-c4cccc(F)c4)c(=O)n3C[C@H]1[C@H](CO)[C@H]2C(=O)NCc1ccccc1
    1	4	-2.5
> COC(=O)C[C@@H]1CC[C@@H]2[C@H](COc3ccc(NC(=O)c4ccccc4F)cc3C(=O)N2C)O1
    10	6	4.1
> CO[C@H]1CN(C)C(=O)c2ccc(NC(=O)NC(C)C)cc2OC[C@H](C)N(C(=O)NC(C)C)C[C@@H]1C
    6	2	4.8
> COc1ccc(-c2ccc3c(c2)[C@@H]2[C@@H](CCN2S(=O)(=O)c2ccccc2F)[C@@H](CO)N3C)cc1
    -8	6	-13
> CN(C)CC#Cc1ccc([C@H]2[C@H](CO)N3C(=O)CN(C(=O)Cc4ccccc4)C[C@@H]23)cc1
    15	10	4.3
> CS(=O)(=O)N1CCCCN2[C@H](CO)[C@H](c3ccc(Br)cc3)[C@@H]2C1
    23	16	6.9
> O=C(NC[C@H]1[C@H](c2ccccc2)[C@H](CO)N1C(=O)C1CCC1)NC1CCCC1
    0	0	0.2
> COc1cccc(S(=O)(=O)N2CCCCN3[C@H](CO)[C@@H](c4ccc(-c5cccnc5)cc4)[C@H]3C2)c1
    -8	-6	-2.1
> CCCC(=O)N1CCC2(CC1)CN(C(=O)Cc1ccccn1)[C@@H](CO)c1[nH]c3cc(OC)ccc3c12
    28	13	15
> CO[C@@H]1CN(C)C(=O)c2cc(C#N)ccc2OC[C@H]2O[C@H](CC[C@H]2OC)CCN(C)C(=O)[C@H]1C
    0	1	-0.9
> CC(C)c1cn(CC[C@@H]2CC[C@@H](NS(=O)(=O)c3ccc(F)cc3)[C@@H](CO)O2)nn1
    4	4	-0.1
> O=C(C[C@H]1CC[C@@H]2[C@H](COC[C@H](O)CN2Cc2ccccc2F)O1)NCc1ccccc1F
    1	10	-8.8
> O=C(C[C@@H]1CC[C@@H]2[C@H](COC[C@H](O)CN2Cc2ccc(C(F)(F)F)cc2)O1)N1CCc2ccccc2C1
    ?	/	/
> COc1ccc(C#Cc2ccc3c(c2)[C@@H]2[C@@H](CCN2C(=O)c2ccccc2F)[C@H](CO)N3)cc1
    14	10	4.5
> O=C(C[C@H]1C[C@H]2c3cc(NC(=O)Nc4ccc(C(F)(F)F)cc4)ccc3O[C@H]2[C@@H](CO)O1)NCCc1ccccc1
    -2	-8	5.7
> O=C(C1CCCCC1)N1C[C@H]2[C@@H](c3ccccc31)[C@@H](CO)N2Cc1ccccc1Cl
    -4	-4	-0.2
> COc1ccc2c3c([nH]c2c1)[C@H](CO)N(C(=O)CN(C)C)CC31CN(C(=O)c2cccnc2)C1
    11	-3	14
> COc1ccc(C#Cc2ccc([C@@H]3[C@H](CO)N4C(=O)CN(C(=O)C5CCOCC5)C[C@@H]34)cc2)cc1
    -8	-2	-6.4
> CO[C@@H](CN(C)C(=O)c1cnccn1)[C@@H](C)CN([C@@H](C)CO)S(=O)(=O)c1ccc(F)cc1
    -1	-4	3.5
> C[C@@H]1CN([C@H](C)CO)C(=O)Cc2cc(NC(=O)Cc3cn(C)c4ccccc34)ccc2O[C@H]1CN(C)S(=O)(=O)c1cccs1
    -2	1	-3.0

At a glance, 17 of the compounds above:
Values in the order – DUX4 txn inh	DUX4 txn inh difference	DUX4 txn inh control
> COc1ccc(-c2ccc3c(c2)[C@@H]2[C@@H](CCN2S(=O)(=O)c2ccccc2F)[C@@H](CO)N3C)cc1
    -8	6	-13
> CN(C)CC#Cc1ccc([C@H]2[C@H](CO)N3C(=O)CN(C(=O)Cc4ccccc4)C[C@@H]23)cc1
    15	10	4.3
> CS(=O)(=O)N1CCCCN2[C@H](CO)[C@H](c3ccc(Br)cc3)[C@@H]2C1
    23	16	6.9
> O=C(NC[C@H]1[C@H](c2ccccc2)[C@H](CO)N1C(=O)C1CCC1)NC1CCCC1
    0	0	0.2
> COc1cccc(S(=O)(=O)N2CCCCN3[C@H](CO)[C@@H](c4ccc(-c5cccnc5)cc4)[C@H]3C2)c1
    -8	-6	-2.1
> CCCC(=O)N1CCC2(CC1)CN(C(=O)Cc1ccccn1)[C@@H](CO)c1[nH]c3cc(OC)ccc3c12
    28	13	15
> CO[C@@H]1CN(C)C(=O)c2cc(C#N)ccc2OC[C@H]2O[C@H](CC[C@H]2OC)CCN(C)C(=O)[C@H]1C
    0	1	-0.9
> CC(C)c1cn(CC[C@@H]2CC[C@@H](NS(=O)(=O)c3ccc(F)cc3)[C@@H](CO)O2)nn1
    4	4	-0.1
> O=C(C[C@H]1CC[C@@H]2[C@H](COC[C@H](O)CN2Cc2ccccc2F)O1)NCc1ccccc1F
    1	10	-8.8
> O=C(C[C@@H]1CC[C@@H]2[C@H](COC[C@H](O)CN2Cc2ccc(C(F)(F)F)cc2)O1)N1CCc2ccccc2C1
    ?	/	/
> COc1ccc(C#Cc2ccc3c(c2)[C@@H]2[C@@H](CCN2C(=O)c2ccccc2F)[C@H](CO)N3)cc1
    14	10	4.5
> O=C(C[C@H]1C[C@H]2c3cc(NC(=O)Nc4ccc(C(F)(F)F)cc4)ccc3O[C@H]2[C@@H](CO)O1)NCCc1ccccc1
    -2	-8	5.7
> O=C(C1CCCCC1)N1C[C@H]2[C@@H](c3ccccc31)[C@@H](CO)N2Cc1ccccc1Cl
    -4	-4	-0.2
> COc1ccc2c3c([nH]c2c1)[C@H](CO)N(C(=O)CN(C)C)CC31CN(C(=O)c2cccnc2)C1
    11	-3	14
> COc1ccc(C#Cc2ccc([C@@H]3[C@H](CO)N4C(=O)CN(C(=O)C5CCOCC5)C[C@@H]34)cc2)cc1
    -8	-2	-6.4
> CO[C@@H](CN(C)C(=O)c1cnccn1)[C@@H](C)CN([C@@H](C)CO)S(=O)(=O)c1ccc(F)cc1
    -1	-4	3.5
> C[C@@H]1CN([C@H](C)CO)C(=O)Cc2cc(NC(=O)Cc3cn(C)c4ccccc34)ccc2O[C@H]1CN(C)S(=O)(=O)c1cccs1
    -2	1	-3.0

In the list so far, these contain a thiophene ring, fused or not.
Values in the order – DUX4 txn inh	DUX4 txn inh difference	DUX4 txn inh control
> CN1C(=O)c2cc(NC(=O)Cc3cccs3)ccc2OC[C@@H]2O[C@H](CC(=O)NCCCN3CCOCC3)CC[C@@H]21
    0	0	0.0
> C[C@@H]1CN([C@H](C)CO)C(=O)Cc2cc(NC(=O)Cc3cn(C)c4ccccc34)ccc2O[C@H]1CN(C)S(=O)(=O)c1cccs1
    -2	1	-3.0
